Source: PubChem BioAssay
TRPML1 agonist: human mucolipin-1 channel agonism; Q9GZU1; TRPML1-expressing cells, Ca2+ dye fluorescence, FDSS; host cell line not named in the record; reference of the full effect not given here; activation, % (no concentration beside the values); hit rate 0.12% among 410,000; AID 624414; in the data active = activation above about 50%; inconclusive = about 30% to 50%; inactive = below about 30%; further: 0% is about no effect; the text of the record puts the active cut at 80%
Target sequence (Q9GZU1 whole entry, looked up): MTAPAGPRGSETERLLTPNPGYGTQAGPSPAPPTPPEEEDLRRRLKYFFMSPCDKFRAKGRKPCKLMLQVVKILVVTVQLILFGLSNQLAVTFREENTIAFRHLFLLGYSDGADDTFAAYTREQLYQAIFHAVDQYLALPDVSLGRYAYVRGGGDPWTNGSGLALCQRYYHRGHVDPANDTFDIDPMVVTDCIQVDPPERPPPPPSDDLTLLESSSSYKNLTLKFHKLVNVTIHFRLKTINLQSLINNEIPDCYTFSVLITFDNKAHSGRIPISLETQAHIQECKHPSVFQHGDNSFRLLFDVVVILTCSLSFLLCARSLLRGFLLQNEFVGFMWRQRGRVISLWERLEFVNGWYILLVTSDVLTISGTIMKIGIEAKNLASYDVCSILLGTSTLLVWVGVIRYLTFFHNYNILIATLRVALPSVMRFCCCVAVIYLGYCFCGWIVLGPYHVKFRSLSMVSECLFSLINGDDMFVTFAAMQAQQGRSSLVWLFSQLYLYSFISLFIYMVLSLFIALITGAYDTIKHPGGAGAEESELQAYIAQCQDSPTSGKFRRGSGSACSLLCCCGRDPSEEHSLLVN
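Tetracycline-induced TRPML1-DL cells are seeded and incubated overnight before loading with a no-wash Ca2+ dye and quencher. Agonist activity is taken from the 110 s fluorescence read following compound pin-transfer on an FDSS, before EC80 54-4 challenge.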
PINK1 modulator: modulators of PINK1 expression; Potency, µM (series often up to 76.6 µM), without a hit: at the highest dose activation (PINK1 increase), hits mostly activators; hit rate 0.2% among 410,000; PINK1 immunofluorescence, high-content cytometry, 24 h; AID 624263; active = well fitted activation curve with a large enough effect; inconclusive = small, poorly fitted or top-dose-only effect; inactive = flat fitted curve, though single readings scatter; cell line not stated here;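 further: potency means the concentration at half of the fitted maximal effect; % of control where 0% means no effect; nearly all actives have a fitted effect of over 65% in size; a mitochondrial uncoupler was the plate control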
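A stable cell line was treated with compounds at 5 concentrations for 24 hours, with CCCP as control. PINK1 levels and mitochondrial localization were measured by immunofluorescence with mitochondrial, cell and nuclear markers after fixation, read by laser-scanning cytometry.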
An asterisk follows results filed as active; ? = inconclusive. A portion of the library, so the mix of outcomes need not match the whole.

Results follow in this order: TRPML1 agonist, PINK1 modulator
CCC(=O)Nc1ccc2nc(SCCOc3ccc(C)cc3)sc2c1
  -0.6, 0.5%
Cc1cc(C)c(S(=O)(=O)NCCc2cc3c(C)ccc(C)c3[nH]c2=O)c(C)c1
  -0.4, 0.0%
C=Cc1ccc(Cn2c(=O)n(CC3CCC(C(=O)NC(C)C)CC3)c(=O)c3sccc32)cc1 (stereo not drawn)
  0.6, -0.9%
CCCc1cc(=O)oc2c3c(ccc12)OCN(Cc1ccc(OC)cc1)C3
  1.4, -0.2%
Cc1cccc(CNC(=O)C2CCN(c3nnc(-n4c(C)ccc4C)s3)CC2)c1
  0.0, -0.7%
CCOc1ccccc1C(=O)Nc1cc(-c2nc3cccnc3s2)ccc1C
  -0.3, 0.1%
CC(=O)N1CCN(c2nc3c(F)cc(F)cc3s2)CC1
  0.9, 2.0%
COc1ccccc1NC(=O)N1CC=C(c2c[nH]c3ccccc23)CC1
  0.8, -1.1%
CCOc1ccc(C(=O)Nc2cc3c(cc2N2CCCC2)n(C)c(=O)c(=O)n3C)cc1OCC
  0.6, -1.1%
Cc1cccc(-c2nc3scc(CCNS(=O)(=O)c4ccc(F)cc4C)n3n2)c1
  2.5, 2.0%
CCCN1CCCc2cc(CN(CCCN3CCOCC3)C(=O)Nc3ccc(CC)cc3)ccc21
  1.9, 26.0%
COc1cc(NC(=O)C2CCN(c3cnc4ccccc4n3)CC2)cc(OC)c1OC
  1.4, 2.6%
COc1cccc(NC(=O)C2CCN(C(=O)N3CC(C)Oc4ccccc43)CC2)c1 (stereo not drawn)
  1.1, -0.7%
CC(=O)c1ccsc1B(O)O
  -0.7, 0.6%
COc1ccc(OC)c(S(=O)(=O)NCc2ccc3c(c2)CCN3C(=O)c2cccc(C)c2)c1
  -0.2, 13.1%
Cc1ccc(N2C(=O)[C@@H]3CSC(c4ccc(C(F)(F)F)cc4)N3C2=O)cc1 (stereo partly drawn)
  3.5, 6.9%
O=c1cc(N2CCN(c3ccc(F)cc3)CC2)[nH]c(=O)n1-c1cccc(Br)c1
  2.9, 5.0%
CC(C)Sc1nnc2c3ccccc3n(C)c2n1
  -0.9, 0.9%
COc1ccc(Cl)cc1Nc1nc2ccc(C(=O)c3ccccc3)cc2n2cnnc12
  -0.1, -0.8%
CCN1CCN(C(c2cccc(OC)c2)c2c(O)cc(C)n(Cc3ccco3)c2=O)CC1 (stereo not drawn)
  0.7, -0.5%
CCOc1ccccc1NC(=O)C(CC)n1c(C(=O)OC)cc2occc21 (stereo not drawn)
  3.8, 6.8%
Cc1cccc(N(C)c2nc3ccc(C)cc3n3cnnc23)c1
  -0.5, 1.5%
O=C(CSc1nc(-c2ccccc2)no1)N1CCN(c2ccc(F)cc2)CC1
  1.4, 2.8%
Cc1ccc(Cl)cc1-n1c(=O)cc(N2CCN(c3ccccc3)CC2)[nH]c1=O
  4.0, -0.9%
CCN(C(=O)CCS(=O)(=O)c1ccc2c(c1)CCN2C(C)=O)c1cccc(C(F)(F)F)c1
  -0.4, -0.9%
Cc1ccc(NS(=O)(=O)c2ccc3[nH]c(=O)ccc3c2)cc1N(C)C
  1.4, -3.9%
CCOC(=O)CNC(=O)N1CCc2cc(S(=O)(=O)N3CCC(C)CC3)ccc21
  -0.2, -1.3%
COc1ccc(Cn2c(C(=O)O)c(CNC3CCCC3)c3ccc(OC)cc32)cc1
  0.3, -1.0%
Cn1c(=O)c2c(SCC(=O)NCc3ccco3)nc(-c3cccc(F)c3)nc2n(C)c1=O
  -0.7, 1.7%
COc1ccccc1C(=O)Nc1ccc(C(=O)OCc2cc(=O)n3nc(C)sc3n2)cc1
  0.0, -0.5%

4 entries already listed, arranged by molar mass, ascending.
Results follow in this order: TRPML1 agonist, PINK1 modulator
CCC(=O)Nc1ccc2nc(SCCOc3ccc(C)cc3)sc2c1
  -0.6, 0.5%
Cc1cc(C)c(S(=O)(=O)NCCc2cc3c(C)ccc(C)c3[nH]c2=O)c(C)c1
  -0.4, 0.0%
COc1cc(NC(=O)C2CCN(c3cnc4ccccc4n3)CC2)cc(OC)c1OC
  1.4, 2.6%
CCCN1CCCc2cc(CN(CCCN3CCOCC3)C(=O)Nc3ccc(CC)cc3)ccc21
  1.9, 26.0%

(next part)
Results follow in this order: TRPML1 agonist, PINK1 modulator
CC(=O)N1CCc2cc(CNC(=O)c3ccccc3Br)ccc21
  1.5, 2.6%
Cc1ccc(N2CC(NC(=O)c3ccc4c(c3)OCO4)CC2=O)cc1 (stereo not drawn)
  -1.1, 0.1%
COc1cccc(NC(CNS(=O)(=O)c2ccc(C)cc2)c2ccccc2)c1 (stereo not drawn)
  5.2, ?
COc1ccc(OC(=O)c2cc(-c3ccc4c(c3)OCCO4)on2)cc1
  0.7, 0.3%
Cc1ccc2scc(N3CCCC(C)C3)c(=O)c2c1 (stereo not drawn)
  -0.4, -1.1%
COc1ccc(Cl)cc1NC(=O)c1cc(S(=O)(=O)NC2CCCCCC2)ccc1F
  1.4, 3.7%
Cc1ccccc1CNC(=O)Cn1ccc2cc(S(=O)(=O)N3CCCCC3)ccc21
  0.7, 2.2%
O=C(NCc1cccc(Cl)c1)c1cnc(N2CCOCC2)c2ccccc12
  0.0, 1.7%
Cc1ccc(Nc2c(-c3cccnc3)nc3ccc(Cl)cn23)cc1
  0.6, -0.8%
CSc1ncc(C(=O)Nc2ccccc2C(F)(F)F)c(-c2ccccc2)n1
  2.1, 13.0%
C=C(CC[C@]12OC(C(=O)O)C(O)(C(=O)O)C(C(=O)O)(O1)C(OC(=O)/C=C/[C@@H](C)C[C@@H](C)CC)C2O)[C@@H](OC(C)=O)[C@H](C)Cc1ccccc1 (stereo partly drawn)
  -0.5, -0.3%
Cc1cccc(C(c2sc3nc(-c4ccco4)nn3c2O)N2CCOCC2)c1 (stereo not drawn)
  1.9, 5.5%
O=C(Cn1ncc2c3ccccc3n(Cc3ccc(Cl)cc3)c2c1=O)NCc1ccccn1
  -0.5, 3.4%
O=C(CSc1nccn1Cc1ccccc1)Nc1nc2ccccc2s1
  1.4, -4.1%
CCOc1ccc(OCc2ccc(C(=O)Nc3cc(OC)c(OC)c(OC)c3)o2)cc1
  -0.4, 5.0%
COc1ccc(Cn2c(CO)cnc2SCc2ccccc2)cc1
  1.4, -1.2%
COc1ccc(C(=O)/C=C/c2cn(CC(O)CN3CCc4ccccc43)c3ccccc23)cc1 (stereo not drawn)
  0.6, -4.1%
CCc1nn2c(=O)cc(COC(=O)c3cccc(NC(=O)COc4ccccc4F)c3)nc2s1
  3.2, 1.6%
COc1cccc(CNC(=O)C(=O)NCC(c2ccco2)S(=O)(=O)c2cccs2)c1 (stereo not drawn)
  0.5, -0.2%
Cc1ccc(NC(=O)Cn2c(-c3nonc3N)nc3ccccc32)cc1Cl
  3.5, -0.1%

The results go on.
mol	TRPML1 agonist	PINK1 modulator
Cc1ccc(CNC(=O)c2nnc(Cc3cccc(F)c3)o2)cc1	0.0	0.1%
Cc1ccc(-c2nc3c4ccccc4[nH]c(=O)n3n2)cc1	-0.8	-0.2%
CCOC(=O)c1ccc(NC(=O)N2CC3CCCN3c3ccccc32)cc1 (stereo not drawn)	0.7	0.9%
Cc1cccc2c1-c1sc(C(=O)Nc3ccc(F)cc3F)cc1CO2	-0.2	3.0%
O=c1c2sc3ccccc3c2n(Cc2cccc(Cl)c2)c(=O)n1Cc1ccco1	-0.5	0.4%
CC(=O)c1cccc(NC(=O)CSc2nc(=O)n(Cc3ccco3)c3c2CCC3)c1	-0.1	-1.2%
CCc1ccc2oc(C(=O)NCC(c3ccc(Cl)cc3)N3CCOCC3)c(C)c2c1 (stereo not drawn)	0.0	1.1%
CCOC(=O)CSc1nc2sc3c(c2c(=O)n1-c1ccc(OC)cc1)CC(C(C)C)OC3 (stereo not drawn)	-0.9	5.4%
Cc1ccc(NCc2nc3ccccc3n2CCOc2ccccc2C)cc1	0.9	?
Cc1ccc(S(=O)(=O)N2CCC(c3nnc(-c4cccc(C)c4)o3)CC2)cc1	0.8	2.3%
Cc1ccc(-n2nc(C)c3c(C(=O)NCCc4ccccc4)cc(C)nc32)cc1	0.3	0.5%
Cc1ccc(C)c(CSc2nc3ccncc3n2Cc2nc(-c3ccccc3Cl)oc2C)c1	-0.6	-1.0%
Cc1ncc(CO)c2c1Oc1nc(-c3ccc(F)cc3)nc(SCc3ccc(F)cc3Cl)c1C2	1.6	-1.1%
COCCN1Cc2cccc(C(=O)Nc3ccc(Cl)cc3Cl)c2C1=O	0.1	0.9%
O=C(CSc1nnc2scc(-c3ccc(Cl)cc3)n12)Nc1cccc(C(F)(F)F)c1	2.3	1.2%
Cc1ccccc1OCC(=O)Nc1ccc2nc(SCC(=O)N3CCCC3)sc2c1	0.8	0.4%
Cc1ccc(NC(=O)N2CCc3cc(S(=O)(=O)N4CCC(C)CC4)ccc32)cc1C	1.1	0.1%
CCOc1ccc(NS(=O)(=O)c2ccc3c(c2)CCCN3C(=O)C2CCC2)cc1	14.6	0.5%
O=C(Nc1ccccc1C(=O)N1CCCCC1)c1nsc2ccccc12	1.2	4.9%
COc1cccc(CNC(=O)CSc2c3c(nc4ccc(Cl)cc24)CCCC3)c1OC	0.6	2.1%
CCc1ccccc1NS(=O)(=O)c1ccc(-c2coc(C)n2)cc1	3.1	-3.8%
CCOCCCn1c(=N)c(S(=O)(=O)c2ccc(Cl)cc2)cc2c(=O)n3cccc(C)c3nc21	1.4	6.4%
O=C(Cn1c(=O)oc2cc(S(=O)(=O)NC3CCCC3)ccc21)Nc1ccc(F)c(F)c1	-0.6	-0.8%
CC(=O)c1cccc(NC(=O)COc2ccccc2C(=O)Nc2ccccc2)c1	-1.1	-0.1%
COc1ccc(-c2cc(C(F)(F)F)nc(NCc3ccccc3)n2)cc1	2.0	?
O=C(CCCn1c(=O)c2cccn2c2cccnc21)NCc1ccc(F)cc1	-0.5	4.0%
COc1ccc(-c2nc3ccccc3n3c(-c4ccc(OC)cc4)c4c(=O)n(C)c(=O)n(C)c4c23)cc1	-0.6	9.6%
O=C(Cn1c(=O)n(-c2ccc(Cl)cc2)c(=O)c2sc3ccccc3c21)NC1CCCC1	-0.2	0.9%
COc1ccc(Cl)cc1C(=O)Nc1nnc2n1CCS2	0.9	-4.2%
O=C(Nc1nc2c(s1)CCCC2)c1ccccc1F	1.1	3.5%

Pulled by compound from the list above, 3 records:
mol	TRPML1 agonist	PINK1 modulator
CCOC(=O)CSc1nc2sc3c(c2c(=O)n1-c1ccc(OC)cc1)CC(C(C)C)OC3 (stereo not drawn)	-0.9	5.4%
CCc1ccccc1NS(=O)(=O)c1ccc(-c2coc(C)n2)cc1	3.1	-3.8%
CCOCCCn1c(=N)c(S(=O)(=O)c2ccc(Cl)cc2)cc2c(=O)n3cccc(C)c3nc21	1.4	6.4%

Additional results follow.
mol	TRPML1 agonist	PINK1 modulator
CN(C(=O)c1oc(=O)c2ccccc2c1-c1ccccc1)c1cccc(Cl)c1	0.7	-0.2%
Cc1ccc(NC(=O)C(C)Sc2nc(-c3ccccc3)c(C#N)c(=O)[nH]2)c(C)c1 (stereo not drawn)	-0.1	-0.2%
Cc1cc(C)cc(Nc2nc3c(S(=O)(=O)c4cccc(Cl)c4)nnn3c3ccsc23)c1	1.3	-1.2%
COc1ccc2[nH]cc(CCNC(=O)Nc3cc(C)cc(C)c3)c2c1	3.3	-0.8%
CCN(CC)c1ccc(NC(=O)c2cccn2-c2nnc(N3CCCCC3)s2)c(C)c1	10.2	0.9%
O=C(c1cc2ccc3cccnc3c2[nH]1)N1CCCCC1	0.4	1.1%
CC(C)(C)c1ccc(S(=O)(=O)N2CCN(c3nc(-c4ccccc4)nc4ccccc34)CC2)cc1	0.3	0.0%
CCC(=O)N1c2ccc(S(=O)(=O)N3CCC(C)CC3)cc2CC1C (stereo not drawn)	-0.1	-0.1%
Cc1cc(C)cc(NC(=O)C2CC(=O)N(c3ccccc3)C2)c1 (stereo not drawn)	-0.5	1.8%
CCCCC(=O)Nc1cc(C)c(O)c(-c2nc3ncccc3o2)c1	-0.1	1.6%
Cc1ccc2c(c1)c(=O)c1ccccc1n2CCCC(=O)Nc1ccc(Cl)c(Cl)c1	-1.1	1.9%
CCCCOc1cccc(C2c3c(oc4ccccc4c3=O)C(=O)N2c2ccccn2)c1 (stereo not drawn)	0.6	-0.7%
CCCCOc1ccc(C2=NC(c3ccncc3)=Nc3ccc(Br)cc3N2)cc1	-0.1	0.0%
Cc1ccc(-n2ncc3c(N4CCCCC4)ncnc32)cc1Cl	-0.7	1.6%
Cc1ccc(Nc2nn3c(=O)c4cc5c(cc4nc3s2)OCO5)cc1Cl	0.1	1.3%
O=C(Nc1ccc(Cl)cc1)c1cc(S(=O)(=O)N2CCc3ccccc32)ccc1F	1.9	0.7%
